# D2 agonist: activates the human D2 dopamine receptor. P14416. DiscoveRx PathHunter D2 beta-arrestin, luminescence, 90 min; 100% = 57 uM dopamine signal. activation, % (no concentration beside the values). 360,000 compounds, 0.084% hits; in the data active = activation above about 40%; inconclusive = about 15% to 40%; inactive = below about 15%; note: compound concentration not given in the record; the text of the record calls up to 30% inactive
#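 Agonist mode: compounds alone added to overnight-plated D2 PathHunter cells for 90 min at 37 C, with 57 uM final dopamine (EC100) defining full response. Beta-arrestin recruitment detected by chemiluminescent reagent, read after 1 h at ambient temperature.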
# PINK1 expr mod: changes PINK1 expression; PINK1 immunofluorescence, high-content cytometry, 24 h; Potency, µM (titrated, usually from 76.6 µM), without a hit: at the top dose activation (PINK1 increase), hits mostly activators; 410,000 compounds, 0.2% hits; AID 624263; active = well fitted activation curve with a large enough effect; inconclusive = small, poorly fitted or top-dose-only effect; inactive = flat fitted curve, though single readings scatter; cell line not stated here;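 note: potency is the fitted concentration of half-maximal effect; % of control where 0% means no effect; nearly all actives have a fitted effect of over 65% in size; a mitochondrial uncoupler was the plate control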
#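 Readout is PINK1 immunofluorescence, quantified alongside mitochondrial, cell and nuclear markers by laser-scanning microplate cytometry. Cells from a stable line were exposed to compound titrations (5 concentrations) for 24 hours, with CCCP controls.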
# Six1-Eya2 blk: blocks human Six1 binding to Eya2; Q15475+O00167; AlphaScreen GST-Six1/His-Eya2 binding, biochemical; active compounds read low; control for the full effect not named in the record; activity change, % (test concentration not listed); 360,000 compounds, 0.56% hits; in the data active = activity change below about -65%; inconclusive = about -30% to -65%; inactive = above about -30%; note: % is set by controls: 0 for no effect and ±100 for the full control effect
# Target sequence (O00167 whole entry, looked up): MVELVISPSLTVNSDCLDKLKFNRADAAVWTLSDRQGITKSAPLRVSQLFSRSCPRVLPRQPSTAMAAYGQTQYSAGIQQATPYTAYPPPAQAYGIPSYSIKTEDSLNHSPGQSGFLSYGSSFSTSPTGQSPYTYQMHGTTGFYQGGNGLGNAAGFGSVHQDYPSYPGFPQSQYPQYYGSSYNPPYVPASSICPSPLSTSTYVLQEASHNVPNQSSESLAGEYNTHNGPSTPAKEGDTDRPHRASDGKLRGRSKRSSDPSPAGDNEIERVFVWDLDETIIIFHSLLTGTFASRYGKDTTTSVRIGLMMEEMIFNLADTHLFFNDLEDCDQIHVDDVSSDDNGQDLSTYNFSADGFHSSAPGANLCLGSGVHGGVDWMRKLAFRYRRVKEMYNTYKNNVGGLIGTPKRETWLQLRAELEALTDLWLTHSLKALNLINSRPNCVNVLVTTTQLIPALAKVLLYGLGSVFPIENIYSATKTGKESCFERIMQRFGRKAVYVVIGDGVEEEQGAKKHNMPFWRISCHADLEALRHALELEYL
# Target sequence (Q15475 whole entry, looked up): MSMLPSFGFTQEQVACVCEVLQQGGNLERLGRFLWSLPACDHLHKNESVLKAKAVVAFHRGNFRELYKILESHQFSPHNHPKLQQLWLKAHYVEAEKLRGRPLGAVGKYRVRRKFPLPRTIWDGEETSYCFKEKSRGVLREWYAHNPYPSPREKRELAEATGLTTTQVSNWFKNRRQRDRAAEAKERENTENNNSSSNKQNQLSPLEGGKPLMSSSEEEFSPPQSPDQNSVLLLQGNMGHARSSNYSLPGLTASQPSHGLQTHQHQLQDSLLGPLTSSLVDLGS
#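 AlphaScreen with GST-Six1 and His-Eya2 (5X mix: 250 nM and 500 nM), glutathione donor and nickel acceptor beads; buffer 50 mM Tris pH 8.0, 300 mM NaCl, 1 mM TCEP; 1 h at 37 C in the dark.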
# CtBP-E1A blk: inhibitors of CtBP/E1A interaction; AlphaScreen GST-E1A/His-CtBP binding, 1536-well; active compounds read low; control for the full effect not named in the record; activity change, % (no concentration beside the values); 340,000 compounds, 0.49% hits; AID 651724; in the data active means activity change below about -65%; inconclusive means about -30% to -65%; inactive means above about -30%; note: % is set by controls: 0 for no effect and ±100 for the full control effect
#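 In 5 uL wells, 23 nL compound meets equimolar GST-E1A and His-CtBP (5X stock 125 nM each) for 2 h, 37 °C. Beads (5X, 50 ug/mL) then 1 h, 37 °C, dark.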
# TRPML1 blocker: inhibitors of human TRPML1 channel; Q9GZU1; TRPML1-inducible cells, Ca2+ dye fluorescence, FDSS; active compounds read low; inhibition of EC80 agonist-evoked calcium signal; activity change, negative = inhibition, % (concentration not given with the values); 390,000 compounds, 0.02% hits; in the data active means activity change below about -50%; inconclusive means about -30% to -50%; inactive means above about -30%;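 note: stimulus is agonist 54-4 at its EC80 concentration; % is set by controls: 0 for no effect and ±100 for the full control effect; the text of the record puts the active cut at -80%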
#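 Tet-induced TRPML1-DL cells loaded with Ca8 no-wash calcium dye were read kinetically on FDSS. Compound addition was followed by EC80 agonist 54-4 (4 uM final); inhibition was read over 110 s.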
# TRPML1 ag: human mucolipin-1 channel agonism; TRPML1-expressing cells, Ca2+ dye fluorescence, FDSS; host cell line not named in the record; reference of the full effect not given here; activation, % (test concentration not listed); 410,000 compounds, 0.12% hits; AID 624414; in the data active = activation above about 50%; inconclusive = about 30% to 50%; inactive = below about 30%; note: 0% is about no effect; the text of the record puts the active cut at 80%
#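 Calcium fluorescence on an FDSS kinetic reader gave the read-out. Tet-induced TRPML1-DL cells were plated overnight, dye-loaded (Ca8 with quencher, 45-90 min, room temperature, dark), then read 110 s after compound addition, and again 110 s after 4uM final 54-4 (EC80).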
# An asterisk follows results filed as active; ? = inconclusive; · = no result given; & = joins results of further samples; [ ] = dose if it differs, or a comment. Hits appear at their usual frequency; about 1% have a hit in one of these screens.
Compound	D2 agonist	PINK1 expr mod	Six1-Eya2 blk	CtBP-E1A blk	TRPML1 blocker	TRPML1 ag
Cc1ccc(SCC(=O)Nc2ccc3oc(-c4ccccc4F)nc3c2)cc1	·	11%	·	·	-3	3.5
CCCCNC(=O)CSc1nnc(Cc2ccccc2)n1CC	-3.6	-3.0%	6	8	-5	-0.3
COc1ccc(-c2c(C)nn3c(NC4CCCC4)cc(C)nc23)cc1OC	-3.0	2.1%	-13	·	6	2.9
Cc1ccc(S(=O)(=O)CC(=O)NC(C)c2ccccc2)cc1 (centres undefined)	12	-1.2%	-6	8	19	0.5
Cc1cc(C)c(NC(=O)Cn2c(=O)n(Cc3ccc4c(c3)OCO4)c(=O)c3ccc(C(=O)NC4CCCCC4)cc32)c(C)c1	·	12%	·	·	10	0.8
CCOc1cc(/C=C2/SC(=S)N(Cc3ccccc3)C2=O)ccc1O	-8.1	3.1%	-1	·	·	·
Cc1ccc(N=C(NO)c2nonc2N)cc1	0.0	6.1%[38.3 µM]	4	4	-1	0.1
CCN(CC)c1ccc(/C=N/N2CCN(Cc3ccc(C)cc3)CC2)c(O)c1	-4.9	14%[38.3 µM]	-5	-2	3	0.3
Oc1ccc(NC(=S)Nc2ccc(F)cc2)cc1	0.2	1.9%	0	·	-2	-0.2
O=C(Cc1ccsc1)N1CCN(S(=O)(=O)c2cccc(F)c2)CC1	-0.4	0.1%	6	5	-6	1.3
O=S(=O)(Cc1ccc(Cl)cc1)Nc1ccc2c(c1)OCO2	0.7	·	-9	8	-1	0.7
COc1ccc(NC(=O)Cn2nnc(C(=O)NCc3ccc(C)cc3)c2N)cc1OC	-1.8	0.7%	-1	1	23	-0.7
CCN(CC)S(=O)(=O)c1ccc(C(=O)NNC(=O)c2cccs2)cc1	0.0	-2.8%	-1	4	4	1.0
COc1ccccc1NC(=S)NCc1ccc(F)cc1	-3.8	-0.9%	-24	-4	41	0.4
COc1cccc(-n2c(SCC(N)=O)nc3c([nH]c4ccccc43)c2=O)c1	-3.3	0.8%	?	-17	9	0.1
Brc1ccc(-c2nnc(Cc3ccccc3)o2)cc1	-2.6	0.6%	20	·	1	-0.5
CN(CC(=O)Nc1ccccc1Cl)C(=O)C1CCN(S(=O)(=O)c2ccc3c(c2)OCCO3)CC1	-2.4	2.6%	-4	4	-18	-0.5
O=C(O)[C@@H](O)[C@H](O)C(=O)O	-5.2	2.8%	4	7	22	0.2
COc1ccc(/C=C/C(=O)c2c(O)ccc3c(C)cc(=O)oc23)cc1	-2.0	-0.5%	-3	-1	1	-0.3
COCC(=O)N/N=C(\C)CC(=O)NCc1ccco1	2.3	-1.3%	-7	5	-7	0.2
COc1ccc(-n2c(=O)c3c4c(sc3n(CC(N)=O)c2=O)CCCCC4)cc1	-3.7	3.4%	-3	2	-3	0.4
O=S(=O)(c1cccc(Cl)c1)N1CCSc2ccccc21	1.9	4.8%	31	33	12	2.1
CN(C[C@H](Cc1ccccc1)N(C[C@H](Cc1ccccc1)N(CCC(C)(C)C)N=O)N=O)N=O	-3.1	0.9%	1	-28	-2	-0.5
CCc1ccc2nc(NC(=O)C3CCN(c4ncnc5sc(C)c(C)c45)CC3)sc2c1	-3.1	8.8%	-3	·	-6	-0.2
CC(=O)CCC(=O)N1CCCC(CNC(=O)c2ccc(-c3ccccc3)cc2)C1 (centres undefined)	0.1	-0.7%	3	·	-2	-0.8
CCN(CC)S(=O)(=O)c1ccc(C(=O)NCC(=O)NCc2ccc3c(c2)OCO3)cc1	-0.3	2.0%	12	15	-24	0.2
CN(C)CCCN1C(=O)c2cccc3c(Br)ccc(c23)C1=O	0.0	-1.5%	-12	4	-1	3.4
CCc1ccc(S(=O)(=O)NC(=S)NC2CCCCC2)cc1	-17	-2.7%	0	-3	-16	0.4
O=C(CSc1ccccc1)NCCc1ccccc1	-0.1	-2.1%	2	6	-12	0.2
Cc1nn2c(c1-c1ccccc1)N=C(c1ccco1)CC2c1ccccc1 (centres undefined)	-5.3	-2.8%	-13	-10	5	0.8

# Later entries.
Compound	D2 agonist	PINK1 expr mod	Six1-Eya2 blk	CtBP-E1A blk	TRPML1 blocker	TRPML1 ag
O=C(Cn1c(=O)c2ccccc2n(CC(=O)N2CCCCC2)c1=O)N1CCCCC1	-2.9	1.3%	5	·	-5	-0.7
CCCN1C(=O)/C(=C/c2c(NCCCOC(C)C)nc3c(C)cccn3c2=O)SC1=S	-9.2	9.1%	0	-1	22	8.9
Cc1ccc(N(C)S(=O)(=O)c2nnc(NC(=O)CC(C)C)s2)cc1	·	-0.6%	·	·	-5	1.9
Cc1cc2ncn(S(=O)(=O)N(C)C)c2cc1C	-1.7	-0.7%	1	-2	-3	-0.4
CC(C)CNS(=O)(=O)c1ccc(CCC(=O)N2CCN(c3ccc(F)cc3)CC2)cc1	3.2	0.8%	0	1	39	1.6
Cc1ccc(NC2=C(Cl)C(=O)OC2OC(=O)c2ccco2)c(C)c1 (centres undefined)	-0.1	2.2%	3	6	-4	0.0
Cc1cccc(OCc2nnc(SCC(=O)O)n2-c2ccccc2)c1	0.2	3.3%	2	-5	-1	0.1
O=C(O)CSc1c(-c2cccs2)[nH]c2ccccc12	3.9	-1.4%	-11	·	6	0.6
COc1ccc(NC(=O)CSc2nncc3ccccc23)cc1	-1.6	0.2%	-1	·	2	1.0
CNS(=O)(=O)c1ccc(CCC(=O)N2CCN(c3ccccc3OC)CC2)cc1	-1.0	2.2%	2	-1	4	0.5
Cc1cn([C@H]2C[C@H](O)[C@@H](CNCc3cccc(OC4CCCC4)c3)O2)c(=O)[nH]c1=O	-3.6	0.9%	9	-7	1	-0.3
CCOC(=O)c1ccc(NS(=O)(=O)c2ccc(-c3cc(C)no3)cc2)cc1	·	1.2%	·	·	10	0.1
Cc1cccc(C)c1NC(=O)CN(C)C(=O)C1CCCCC1	-6.8	-1.3%	-9	-7	-6	-0.1
N#CCC(=O)N/N=C/c1ccc(Cl)cc1	0.7	-1.0%	11	32	-11	2.0
CCOC(=O)c1c(NC(=S)NCc2ccccc2)sc2c1CCN(C(=O)OCC)C2	-8.0	3.8%	-2	3	-7	-0.6
CC1CCc2ccccc2N1C(N)=Nc1ccccc1 (centres undefined)	-4.2	1.0%	3	3	30	0.4
C[C@H]1CNC(=O)c2c(C(=O)N[C@@H](Cc3c[nH]c4ccccc34)C(=O)OC(C)(C)C)ncn21	-2.4	0.4%	-14	-3	-5	0.0
CCOC(=O)N1CCN(Cc2nc(CC3CC3)no2)CC1	-3.1	1.3%	2	5	28	-0.6
CCCc1cc(=O)[nH]c(/N=C(/NC(=O)c2ccccc2)Nc2ccc3c(c2)OCCO3)n1	-3.6	3.3%	10	22	-9	1.2
Cc1csc(N(C(=O)c2cccc(S(=O)(=O)N3CCCC3)c2)c2ccccc2)n1	-2.4	-2.5%	0	1	5	0.4
CCS(=O)(=O)CCSc1nc(C)cc(C)c1C#N	-0.4	1.6%[38.3 µM]	2	13	-17	0.0
COc1cc(OC)cc(-c2nc3ccccc3c(=O)n2NC(=O)c2cccnc2Cl)c1	2.2	1.7%	-2	·	1	0.3
Cc1ccc(NCc2cccn2-c2nnc(N3CCC(C(=O)NCCC(C)C)CC3)s2)cc1	·	-0.3%	·	·	6	-0.4
CCc1cc2c(N=Nc3c(O)[nH]c4ccccc34)ncnc2s1	-2.7	?	-2	2	2	-0.1
COc1ccccc1NC(=S)NC(C)C(c1cccs1)N1CCOCC1 (centres undefined)	-3.1	0.5%	5	0	8	-0.1
CCC(C(=O)NC1CCCCC1)n1c(SCc2ccccc2F)nc2ccncc21 (centres undefined)	-3.5	-0.1%&3.1%	-2	0	-18&-10	1.4&-0.2
COc1ccc(NC(=O)CNC(=O)Cn2cnc3sc4c(c3c2=O)CCCC4)cc1OC	-0.4	-0.2%	4	0	10	0.0
O=C(CN1C(=O)COc2ccccc21)NCCC1=CCCCC1	-0.4	·	3	8	-1	-0.2
O=c1[nH]c2c(Br)cnc([N+](=O)[O-])c2[nH]1	1.9	-0.3%	-3	-3	-10	-1.1
Cc1[nH]c2ccccc2c1C(C#N)(C#N)C1C(=O)c2ccccc2C1=O	1.8	-2.2%	?	?	3	1.0

# The listing continues.
Compound	D2 agonist	PINK1 expr mod	Six1-Eya2 blk	CtBP-E1A blk	TRPML1 blocker	TRPML1 ag
O=C(CC(=O)N/N=C/c1ccc(C(=O)O)cc1)NCCc1ccccc1	-1.8	-0.3%	0	·	36	-1.0
Cc1ccc(C)n1-c1ccc(C(=O)N2CCOCC2)cc1	-1.8	5.1%[38.3 µM]	0	-1	-3	-0.2
O=C1c2cccc([N+](=O)[O-])c2C(=O)N1CCO	-0.9	-0.7%	1	9	-4	2.3
COc1ccc(NC(=O)c2cc3c(=O)n(Cc4ccco4)ccc3nc2C)cc1	·	1.7%	·	·	19	1.0
CN(C(=O)CSCC(=O)Nc1ccc(Cl)cc1)C1CCCCC1	0.6	3.4%	-3	7	-6	-1.2
CCOC(=O)c1cc2c(ccn2C)n1CC(=O)N1CCN(c2ccccc2)CC1	-2.6	-0.6%[38.3 µM]	-26	8	6	-0.2
CCN(CC)CCn1c(NC(=O)c2ccccc2O)nc2ccccc21	-2.8	6.0%	4	·	·	·
Cc1cccc(C(=O)NC2CCN(S(=O)(=O)c3ccccc3F)CC2)c1	1.0	-0.5%	-2	2	0	1.5
CCN(CC)C(=O)COc1coc(CN2CCN(c3ccccc3)CC2)cc1=O	0.1	-0.9%	-2	-2	-7	0.7
N#Cc1cccc(S(=O)(=O)NCC(=O)NCCCc2ccccc2)c1	-2.3	-1.9%	2	4	15	-0.8
O=C(NCC(F)(F)F)c1ccc2sc([C@@H]3O[C@H](CO)[C@H](O)[C@H](O)[C@H]3O)nc2c1	-5.8	-0.8%	1	3	-10	-0.1
O=C(COC(=O)CCC(=O)c1cccs1)Nc1cc(S(=O)(=O)N2CCOCC2)ccc1Cl	0.6	1.8%[38.3 µM]	0	0	-9	0.2
CCC1CN(C(=O)NCc2cccc(OC)c2)c2ccccc2O1 (centres undefined)	0.0	-0.9%&0.6%	14	6	-14&12	1.2&3.3
COc1cc(/C=C(\C#N)c2nc3ccc(C)cc3[nH]2)c([N+](=O)[O-])cc1OC	2.9	3.7%	-10	-16	1	-0.2
CCCCNC(=O)CCc1c(C)nc2c(c(C)nn2-c2ccccc2)c1C	-6.6	-0.1%&2.3%	1	·	-14&5	1.8&2.2
O=S(=O)(c1ccccc1F)N1CCc2ccccc2C1	0.9	0.2%	3	8	19	2.6
COc1cccc(NC(=O)CSc2cc(=O)n(C)c3ccc(Cl)cc23)c1	·	8.8%	·	·	1	-0.4
CS(=O)(=O)N(CC(=O)N1CCCCC1)c1ccc2c(c1)OCO2	-0.2	19%[38.3 µM]	3	-21	6	0.6

# Bioassay records as filed in PubChem BioAssay.
